Compound activity deposited in PubChem by National Center for Advancing Translational Sciences (NCATS).
VDR inhibitor: blocks the human vitamin D receptor | Potency, µM, without a hit: max response, negative = inhibition, actives largely listed as inhibitors | P11473 | VDR-SRC2-3 peptide fluorescence polarization, 2 h | 400,000 tested, 0.93% active | AID 504847; active means well fitted inhibition curve with a large enough effect; inconclusive means small, poorly fitted or top-dose-only effect, or another doubt; inactive means no such curve, though single readings can be large or run the other way; further: series mostly up to about 120 µM
Target sequence (P11473 whole entry, looked up): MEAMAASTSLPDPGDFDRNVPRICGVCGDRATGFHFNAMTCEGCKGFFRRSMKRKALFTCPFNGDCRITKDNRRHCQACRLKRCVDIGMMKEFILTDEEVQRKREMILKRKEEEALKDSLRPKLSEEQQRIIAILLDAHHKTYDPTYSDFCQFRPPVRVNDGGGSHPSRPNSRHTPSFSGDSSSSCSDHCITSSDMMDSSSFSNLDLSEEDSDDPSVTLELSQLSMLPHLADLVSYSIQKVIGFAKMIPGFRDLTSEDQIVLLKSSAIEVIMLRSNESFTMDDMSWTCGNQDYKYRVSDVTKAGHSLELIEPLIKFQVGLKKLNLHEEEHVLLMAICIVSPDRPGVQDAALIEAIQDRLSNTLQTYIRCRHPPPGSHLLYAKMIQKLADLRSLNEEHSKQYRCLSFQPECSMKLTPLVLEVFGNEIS
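After 23 nl compound addition and a short centrifugation, plates sat for 2 hours at ambient temperature; polarization of fluorescence then indicated loss of VDR binding to peptide SRC2-3.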
* hit, by the source's call; & = joins results of further samples; [ ] = dose if it differs, or a comment. On the % scale 0 is the no-effect control and ±100 the full control effect; potency means the concentration at half of the fitted maximal effect.

`Cc1ccccc1C(=O)N1CCN(c2ccc(NC(=O)c3cccnc3)cc2)CC1` gave VDR inhibitor -22%.
For O=C(NC1CCCC1)C(c1ccc(Cl)cc1)N(C(=O)c1csnn1)C1CC1 (configuration not stated) the results were VDR inhibitor 5%.
For O=C(COC(=O)c1cc2ccccc2cc1O)NCc1ccccc1 the results were VDR inhibitor 1%.
Screening COc1ccccc1CNC(=O)c1cccc2c1C(=O)N(Cc1cccnc1)C2 returned VDR inhibitor -7%.
CCOC(=O)n1cc(C(=O)c2ccccc2O)cn1 was read as VDR inhibitor -2%.
COc1ccc(C(=O)/C=C/Nc2ccc(NC(C)=O)cc2)cc1OC was read as VDR inhibitor -5%.
`COC(=O)c1[nH]c(C)c(/C(O)=C2\C(=O)C(=O)N(CCN3CCOCC3)C2c2cccs2)c1C` (configuration not stated) gave VDR inhibitor -6%.
`CCCn1c(N)c(C(=O)COC(=O)/C=C/c2ccc(OC(F)F)c(OC)c2)c(=O)[nH]c1=O` gave VDR inhibitor -2%.
For Cc1cc(C)cc(NS(=O)(=O)c2ccc3[nH]cc(C(=O)N4CCCCC4)c(=O)c3c2)c1 the results were VDR inhibitor -11%.
`COc1ccc(Nc2ccc(OC)cc2)cc1` gave VDR inhibitor -17%.
COCc1c(C(=O)NC2CCCCCC2)oc2ccccc12 was read as VDR inhibitor -1%.
C=CCn1c(C(C)NC(=O)c2ccccc2)n[nH]c1=S (configuration not stated) was read as VDR inhibitor 32%.
CC(=O)Nc1nc2cc3c(cc2s1)OCCO3 was read as VDR inhibitor 10%.
Screening C#CCOCCOCCOCCNc1nc(N2CCOCC2)nc(N2CCN(C(=O)CCCCCCCCCCNC(=O)[C@H]([C@@H](C)CC)n3cc(CCCCN=C(N)N)nn3)CC2)n1 returned VDR inhibitor -5%.
Cc1ccc(CNC(=O)c2ccccc2NC(=O)CN2CC(C)OC(C)C2)cc1 (configuration not stated) was read as VDR inhibitor 9%.
CC(=O)c1ccc(NC(=O)Cn2c3ncccc3c(=O)n2-c2ccc(C)cc2)cc1 was read as VDR inhibitor -5%.
CC1(C)OC(C(=O)NC2CCCCC2)C(C(=O)NC2CCCCC2)O1 (configuration not stated) was read as VDR inhibitor -5%.
Screening O=C(CN1CCCCC1)NCC(=O)Nc1ccc(F)c(F)c1F returned VDR inhibitor -11%.
COc1ccccc1NC(=O)C(C)OC(=O)Cn1cnc2c1c(=O)n(C)c(=O)n2C (configuration not stated) was read as VDR inhibitor -3%.
Screening Cc1ccc(S(=O)(=O)N2CCN(C(=O)CCC(=O)NCc3cccc(C(F)(F)F)c3)CC2)cc1 returned VDR inhibitor 13%.
For CCc1ccc(NC(=O)COC(=O)/C(=C/c2ccccc2OC)c2ccccc2)cc1 the results were VDR inhibitor -17%.
For CSc1nc2sc3c(c2c(=O)n1C)CCC(C)C3 (configuration not stated) the results were VDR inhibitor -2%.
O=C(CSc1c2c(nc3ccc(Cl)cc13)CCCC2)N1CCN(C(=O)c2ccco2)CC1 was read as VDR inhibitor inconclusive.
Cc1ccc([N+](=O)[O-])cc1N(CC(=O)NC1CCCC1)S(C)(=O)=O was read as VDR inhibitor 0%.
For COc1ccc(NC(=O)c2cc(-c3ccco3)on2)cc1 the results were VDR inhibitor 21%.
CC(C)CNC(=O)c1ccccc1NC(=O)CSCc1ccccc1 was read as VDR inhibitor 4%.
Cc1cc(C)cc(NC(=O)CSc2oc(-c3ccco3)nc2S(=O)(=O)c2ccc(Cl)cc2)c1 was read as VDR inhibitor -10%.
`O=C1CSC(=S)N1/N=C/c1cccnc1` gave VDR inhibitor -11%.
CCn1nc(C)c(CNC(=O)C2CCC(=O)N(Cc3ccc(Cl)cc3)C2)c1C (configuration not stated) was read as VDR inhibitor -2%.
For O=c1c(-c2ccc(F)cc2)nc2cncnc2n1Cc1ccccc1 the results were VDR inhibitor 0%.
Cc1cc(C)c(OCC(=O)N/N=C/c2ccc3c(c2)OCO3)c(C)c1 was read as VDR inhibitor 9%.
`CCC(C)[C@H](NC(=O)[C@@H]1CSC2c3ccccc3C(=O)N21)C(=O)NCc1ccco1` (some centres not stated) gave VDR inhibitor -4%.
`Cc1ccsc1C(=O)NC(C)c1ccccc1` (configuration not stated) gave VDR inhibitor 12%.
Screening CCCC(C(=O)Nc1ccncc1)c1ccccc1 (configuration not stated) returned VDR inhibitor 24%.
Screening CC(=O)C(C)Oc1ccc2c3c(c(=O)oc2c1C)CCCC3 (configuration not stated) returned VDR inhibitor -7%.
Screening COc1ccc(NC(=O)CSc2n[nH]c(=O)n2Cc2ccccc2)cc1Cl returned VDR inhibitor 6%.
Screening O=C1C(c2ccc(F)cc2)N(CCc2ccccc2)C(=O)CN1C1CCCCCC1 (configuration not stated) returned VDR inhibitor -7%.
`COc1cc(C(C(=O)NC2CCCCC2)N(C(=O)Cc2c[nH]c3ccccc23)c2ccc(C)cc2)cc(OC)c1OC` (configuration not stated) gave VDR inhibitor -22%.
For CCN1C(=O)NC(c2ccccc2)C1=O (configuration not stated) the results were VDR inhibitor -4%.
Screening COc1cccc(-c2nnc3n(Cc4ccc(C)cc4)c(=O)c4ccccc4n23)c1O returned VDR inhibitor -3%.
For CC(C)CC1NC(=O)N(CC(=O)Nc2cc([N+](=O)[O-])ccc2F)C1=O (configuration not stated) the results were VDR inhibitor 3%.
COCc1c(C(=O)OCc2nnc(-c3ccc([N+](=O)[O-])cc3)o2)oc2ccccc12 was read as VDR inhibitor -8%.
`O=C(O)CCCN1C(=O)/C(=C\C(Cl)=C\c2ccccc2)SC1=S` gave VDR inhibitor 135%[activator].
`CCc1cccc(NC(=O)c2nc(-c3ccncc3)no2)c1` gave VDR inhibitor 0%.
Screening CCc1ccc(NC(=O)c2cnn3c(C(F)F)cc(C)nc23)cc1 returned VDR inhibitor -6%.
For Cc1ccc2c(c1)cc1c(=O)n(Cc3ccc(Cl)cc3)nc(C)n12 the results were VDR inhibitor 5%.
`COc1cc(C)ccc1NC(=O)c1ccc(S(=O)(=O)N2CCOCC2)cc1` gave VDR inhibitor -6%.
For COc1ccc2[nH]c(=S)[nH]c2c1 the results were VDR inhibitor 5%.
For CCOC(=O)C1CCN(C(=O)c2ccc(OC)cc2OC)CC1 the results were VDR inhibitor -3%.
CCOc1ccccc1NC(=O)CSc1nnc(C2CC2)n1CC was read as VDR inhibitor 2%.
Screening O=C(COC(=O)CNC(=O)c1ccccc1)NCCCc1ccccc1 returned VDR inhibitor -2%.
For Cc1ccc2nc(NCc3ccccc3)c(C=NCc3ccccc3)c(=O)n2c1 the results were VDR inhibitor 6%.
For COc1ccc(OC)c(NC(=O)COC(=O)C2CCN(C(=O)c3ccc(Cl)cc3)CC2)c1 the results were VDR inhibitor 11%.
Screening COc1ccc(S(N)(=O)=O)cc1C(=O)NCCCN1CCN(c2cccc(Cl)c2)CC1 returned VDR inhibitor -3%.
For COc1ccc(/C=C2/SC(=O)N(CCC(=O)Nc3ccccc3)C2=O)cc1OC the results were VDR inhibitor -8%.
`C=CCNC(=O)c1cc(=O)c2ccccc2o1` gave VDR inhibitor 1%.
`COc1ccc(-n2nc(C(=O)N(C)C3CCCCC3)c3ccccc3c2=O)c(OC)c1` gave VDR inhibitor -2%.
CCCC1CCC(=NNC(=S)NCCc2ccccc2)CC1 (configuration not stated) was read as VDR inhibitor -24%.
`CC(C)c1nnc(NC(=O)c2sc3ccccc3c2Cl)s1` gave VDR inhibitor 6%.
`COC(=O)/C(=C\Nc1ccc(Cl)cc1Cl)NC(=O)c1ccccc1` gave VDR inhibitor 3%.
Screening CCCC(c1nnnn1C1CCCCC1)N1CCN(c2ncccn2)CC1 (configuration not stated) returned VDR inhibitor 0%.
`COc1cc(/C=C2\SC(=S)N(CCC(=O)NC3CCCC3)C2=O)cc(OC)c1OC` gave VDR inhibitor inconclusive.
`CCOC(=O)c1cc2ccc(OC)cc2oc1=O` gave VDR inhibitor 7%.
Screening COC(=O)C1(C)NC(c2ccccc2C)C2C(=O)N(c3ccccc3)C(=O)C21 (configuration not stated) returned VDR inhibitor 1%.
`Oc1ccc(N2CCN(CC(O)c3ccccc3)CC2)cc1` (configuration not stated) gave VDR inhibitor 9%.
O=C(Nc1cc(C(F)(F)F)ccc1N1CCOCC1)c1cccs1 was read as VDR inhibitor -5%.
Screening O=C(CSc1ccc(Cl)cc1)NC1CCCC1 returned VDR inhibitor -17%.
Screening Cn1nc(C(=O)Nc2ccc(S(=O)(=O)NCc3ccco3)cc2)c2ccccc2c1=O returned VDR inhibitor 0%.
O=C(CSC(=S)N1CCCC1)NCC(=O)Nc1ccccc1Br was read as VDR inhibitor -12%.
`CCOC(=O)C1CCN(S(=O)(=O)c2ccc3c(c2)NC(=O)CS3)CC1` gave VDR inhibitor 4%.
CC1CCc2cc(F)ccc2N1C(=O)CN1C(=O)c2ccccc2C1=O (configuration not stated) was read as VDR inhibitor 7%.
For CCOc1ccc(C(=O)N2CCC(c3nc(-c4ccc(S(=O)(=O)N5CCCC5)cc4)no3)CC2)cc1 the results were VDR inhibitor 13%.
Cc1cc(C)c2c(=O)n(-c3ccccc3)[nH]c2n1 was read as VDR inhibitor 20%.
For CC(=O)N1CCc2c(sc3c2c(=O)n(-c2ccccc2)c(=O)n3CC(=O)Nc2ccccc2C)C1 the results were VDR inhibitor 10%.
NC(=O)NS(=O)(=O)Oc1ccccc1 was read as VDR inhibitor 10%.
Screening CCOC(=O)c1cc(-c2csc(Nc3ccccc3Cl)n2)on1 returned VDR inhibitor 4%.
O=C(Nc1cccc(F)c1)c1ccc(-c2ccccc2)s1 was read as VDR inhibitor -3%.
`COC(=O)c1c(C(=O)OC)c(-c2ccc(F)cc2)n2c1CS(=O)C2` (configuration not stated) gave VDR inhibitor -3%.
`COc1ccccc1CCNC(=O)CCc1c(C)c2cc3c(C)c(C)oc3cc2oc1=O` gave VDR inhibitor 1%.
`CCOc1ccccc1/C=N/NC(=O)c1cccc(S(=O)(=O)N2CCOCC2)c1` gave VDR inhibitor 85%[activator].
C/C(=N/NC(=O)c1sc(NS(=O)(=O)c2ccc(C)cc2)nc1C)c1sc(N)nc1C was read as VDR inhibitor -3%.
For O=C(c1ccccc1)c1ccc2c(c1)OCCOCCOCCO2 the results were VDR inhibitor -13%.
For CC(=O)OC1CCC2C3CCc4cc(O)ccc4C3CCC12C (configuration not stated) the results were VDR inhibitor 6%&-2%.
CC(C)(C)c1cc(CNC2CS(=O)(=O)C[C@@H]2O)cc(C(C)(C)C)c1O (some centres not stated) was read as VDR inhibitor 50µM*.
`CCOc1ccc(CN(C)CC(=O)Nc2cccc(S(=O)(=O)N(C)c3ccccc3)c2)cc1` gave VDR inhibitor 22%.
Screening CCC(=O)NC(c1cccs1)c1cc([N+](=O)[O-])c2cccnc2c1O (configuration not stated) returned VDR inhibitor -19%.
`CCCn1c(C)cc(/C=C(\C#N)C(=O)OCC(=O)NC(=O)NCC)c1C` gave VDR inhibitor 4%.
CCCCOCCCN1CC(=O)N2C(C)c3[nH]c4ccccc4c3C[C@H]2C1=O (some centres not stated) was read as VDR inhibitor -14%.
`Cc1cccc(C(=O)NCCc2csc(C)n2)c1` gave VDR inhibitor 11%.
`COc1ccc2c(c1)sc1ncc(C(=O)NCc3ccc(OC(C)C)cc3)c(=O)n12` gave VDR inhibitor -2%.
Screening COc1nc(NCCO)nc(Nc2cc(Cl)ccc2OC)n1 returned VDR inhibitor 4%.
`Cc1cc(C)c(NS(=O)(=O)c2ccc(-c3coc(C)n3)cc2)c(C)c1` gave VDR inhibitor 18%.
`c1ccc2c(c1)C(=NC1CCCCC1)NC2=NC1CCCCC1` gave VDR inhibitor -6%.
`Cc1ccc2cc(CN(CC3CCCO3)C(=O)NC3CCCCC3)c(=O)[nH]c2c1C` (configuration not stated) gave VDR inhibitor 8%.
CCOC(=O)C1(CCc2ccccc2)CCN(Cc2cnc(N(C)C)s2)CC1 was read as VDR inhibitor -25%.
For Clc1ccc(Cl)c2sc(N3CCCC3)nc12 the results were VDR inhibitor 1%.
`COc1cccc(N2CCN(C(=O)c3cccnc3)CC2)c1` gave VDR inhibitor 7%.
Screening COc1ccccc1C(=O)NC(CCSC)C(=O)NNC(=O)c1ccccc1O (configuration not stated) returned VDR inhibitor -29%.
N#CCSc1nnc(-c2ccccc2O)n1CCc1ccccc1 was read as VDR inhibitor 0%.

Grouped by structure, those above with fluorine
`CCCn1c(N)c(C(=O)COC(=O)/C=C/c2ccc(OC(F)F)c(OC)c2)c(=O)[nH]c1=O` gave VDR inhibitor -2%.
Screening O=C(CN1CCCCC1)NCC(=O)Nc1ccc(F)c(F)c1F returned VDR inhibitor -11%.
Screening Cc1ccc(S(=O)(=O)N2CCN(C(=O)CCC(=O)NCc3cccc(C(F)(F)F)c3)CC2)cc1 returned VDR inhibitor 13%.
For O=c1c(-c2ccc(F)cc2)nc2cncnc2n1Cc1ccccc1 the results were VDR inhibitor 0%.
Screening O=C1C(c2ccc(F)cc2)N(CCc2ccccc2)C(=O)CN1C1CCCCCC1 (configuration not stated) returned VDR inhibitor -7%.
For CC(C)CC1NC(=O)N(CC(=O)Nc2cc([N+](=O)[O-])ccc2F)C1=O (configuration not stated) the results were VDR inhibitor 3%.
Screening CCc1ccc(NC(=O)c2cnn3c(C(F)F)cc(C)nc23)cc1 returned VDR inhibitor -6%.
O=C(Nc1cc(C(F)(F)F)ccc1N1CCOCC1)c1cccs1 was read as VDR inhibitor -5%.
CC1CCc2cc(F)ccc2N1C(=O)CN1C(=O)c2ccccc2C1=O (configuration not stated) was read as VDR inhibitor 7%.
O=C(Nc1cccc(F)c1)c1ccc(-c2ccccc2)s1 was read as VDR inhibitor -3%.
`COC(=O)c1c(C(=O)OC)c(-c2ccc(F)cc2)n2c1CS(=O)C2` (configuration not stated) gave VDR inhibitor -3%.

An excerpt; count on the stated rates, not on these rows.
